High-throughput results: PubChem, several laboratories
HNF4A DNA FP: change in binding of human HNF4A to DNA, primary screen, biochemical, fluorescence polarization, FITC-DNA; Hepatocyte nuclear factor 4-alpha (Homo sapiens), P41235; 1 h; activity change, % at 10 µM; actives 0.3% (n = 360,000); AID 1224865, 2016; in the data active = activity change above about 30%, passing the limit was not always enough;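 note: controls were the assay level and a saturating level of protein; the project sought stronger binding though the title names inhibitors; some compounds called inactive have numbers as strong as hits; positive values seem to mean higher polarization but the record does not say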
E coli growth: E. coli growth inhibition, primary screen, OD600; Escherichia coli growth, 23 h; stronger effect = lower value; OD600 absorbance (test concentration not listed); actives 0.21% (n = 330,000);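 active = OD600 absorbance below the run mean of sample wells minus 3.6 SD, in any replicate, cut at about 0.56 in these data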;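 note: stock transfer was 300 nL into about 60 µL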
A1 inh: caspase 3/7 activation in MEF A1-2A-BIM cells, primary screen, A1 inhibitor project, cell-based, luminescence, HTS; Caspase-Glo 3/7 luminescence, 3 h; percent of clofoctol response, vehicle zero; caspase activation, % (no concentration beside the values); actives 0.066% (n = 330,000);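 active = over half of replicate activation scores above 10%, or exactly half above 10 with the replicate mean above 10; inconclusive = replicate mean below 10 yet half the replicates above 10; inactive = over half of replicates below 10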;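 note: wells of about 30 µL received 50 nL stock; many hits fall short of the cut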
UCH37 inh: inhibitors of human UCH37 deubiquitinase, primary screen, biochemical, Ub-AMC cleavage, fluorescence; Ubiquitin carboxyl-terminal hydrolase isozyme L5 (Homo sapiens), Q9Y5K5; purified proteasome/UCH37; inhibition, % (concentration not given with the values); actives 0.33% (n = 330,000);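 active = mean of two replicates above 20%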;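 note: 0% = compound-free wells with enzyme and 100% = wells lacking proteasome; stock transfer was 100 nL into about 20 µL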
Target sequence (Q9Y5K5 whole entry, looked up): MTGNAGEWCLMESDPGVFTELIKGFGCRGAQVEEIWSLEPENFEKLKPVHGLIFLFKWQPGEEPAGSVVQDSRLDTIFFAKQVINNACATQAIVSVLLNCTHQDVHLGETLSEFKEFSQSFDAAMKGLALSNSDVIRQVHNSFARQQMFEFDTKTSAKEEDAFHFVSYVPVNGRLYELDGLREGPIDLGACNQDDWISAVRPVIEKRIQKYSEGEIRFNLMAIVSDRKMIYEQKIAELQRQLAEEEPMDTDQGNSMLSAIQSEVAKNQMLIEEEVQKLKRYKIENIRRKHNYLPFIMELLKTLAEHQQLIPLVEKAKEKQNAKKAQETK
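System: Proteasome-associated human UCH37 deubiquitinase; Input: 0.15 nM proteasome in added enzyme buffer; Also added: Ub-AMC substrate from 1 µM stock; Incubation: 30 min compound-proteasome preincubation then 25 min substrate reaction, room temperature; Detection: fluorescence, ex 355 nm, em 460 nm; Read-out: % inhibition of Ub-AMC cleavage fluorescence; Benchmarks: no-proteasome and no-compound wells.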
Beta2AR agonist: beta2AR agonists driving receptor internalization, primary screen, cell-based, FAP fluorogen, flow cytometry; Beta-2 adrenergic receptor (Homo sapiens), P07550; Am2.2-beta2AR cells; reference of the scale not given here; response, % (test concentration not listed); actives 0.43% (n = 340,000); AID 504454, 2011;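 active = response above a set limit, near 3 SD of response in nonfluorescent compounds, cut at about 42% in these data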;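 note: stock transfer was 100 nL into about 11 µL; a reference agonist was the positive control; negative values mostly stem from fluorescent compounds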
Target sequence (P07550 whole entry, looked up): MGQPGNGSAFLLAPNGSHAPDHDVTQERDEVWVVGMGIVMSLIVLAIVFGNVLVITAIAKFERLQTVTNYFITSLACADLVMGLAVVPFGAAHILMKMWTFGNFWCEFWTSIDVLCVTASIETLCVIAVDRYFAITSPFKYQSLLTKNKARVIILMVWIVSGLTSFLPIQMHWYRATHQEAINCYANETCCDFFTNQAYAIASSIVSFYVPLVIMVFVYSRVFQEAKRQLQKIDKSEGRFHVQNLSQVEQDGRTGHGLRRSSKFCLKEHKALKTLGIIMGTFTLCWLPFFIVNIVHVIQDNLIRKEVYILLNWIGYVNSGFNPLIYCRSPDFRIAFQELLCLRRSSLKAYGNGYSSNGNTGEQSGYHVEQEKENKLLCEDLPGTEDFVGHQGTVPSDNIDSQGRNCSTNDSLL
Vif TR-FRET: inhibitors of Vif binding to APOBEC3G peptide, primary screen, biochemical, TR-FRET, GST-Vif 1-94, biotin-A3G peptide, dose response retest (AID 1117319). inhibition, %; hits with a dose series show IC50 in µM. TR-FRET GST-Vif / biotin-A3G peptide binding; higher % means a stronger effect; test concentration not given here; strong numbers were not always called active. actives 0.57% (n = 260,000). Virion infectivity factor (Human immunodeficiency virus type 1 group M subtype B (isolate …;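 active = above the screen mean plus three standard deviations and confirmed in dose response; inconclusive = results disagree or hit not tested in dose response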;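 note: Vif residues 1-94 fused to GST binding biotinylated APOBEC3G peptide 110-148; 0% = full assay without inhibitor and 100% = GST in place of GST-Vif; retest series ran down from 100 µM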
LANA-H2A inh: blockers of LANA interaction with H2A/H2B – biochemical, FP readout, HTS, primary screen; inhibition, % (no concentration beside the values); cell-free LANA-H2A/H2B peptide, fluorescence polarization; actives 0.6% (n = 320,000); AID 2629, 2010; in the data active = inhibition mostly above about 10%, no sharp cut-off; inactive = mostly below about 6.7%;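 note: stock transfer was 7.5 nL into about 10 µL; 0% = median of vehicle wells and 100% = median of positive control wells; one replicate is shown; the record names a cut of 25% in any replicate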
The depositor's hits bear a star; ? = inconclusive; · = no result given; & = joins results of further samples.

Start of the data: the first 4 entries, to show the layout:
SMILES	HNF4A DNA FP	E coli growth	A1 inh	UCH37 inh	Beta2AR agonist	Vif TR-FRET	LANA-H2A inh
COc1ccc(CNC(N)=O)cc1	-3.6	0.68	0.9	4.3	-3	2%	-1.5
Cc1cccc(C)c1NC(=O)CNCC(=O)Nc1c(C)cccc1C	-0.9	0.7	-1.0	1.5	0	-6%	-1.1
O=C(COc1ccccc1)NCCS(=O)(=O)N1CCN(c2ccccc2)CC1	-2.4	0.69	0.9	4.6	-4	-10%	-3.5
COc1ccc(S(=O)(=O)Nc2ccc(OCC(=O)O)cc2)c2ccccc12	2.2	0.72	-0.2	4.2	-7	-3%	6.8

The list itself (from the top)
SMILES	HNF4A DNA FP	E coli growth	A1 inh	UCH37 inh	Beta2AR agonist	Vif TR-FRET	LANA-H2A inh
COc1ccc(CNC(N)=O)cc1	-3.6	0.68	0.9	4.3	-3	2%	-1.5
Cc1cccc(C)c1NC(=O)CNCC(=O)Nc1c(C)cccc1C	-0.9	0.7	-1.0	1.5	0	-6%	-1.1
O=C(COc1ccccc1)NCCS(=O)(=O)N1CCN(c2ccccc2)CC1	-2.4	0.69	0.9	4.6	-4	-10%	-3.5
COc1ccc(S(=O)(=O)Nc2ccc(OCC(=O)O)cc2)c2ccccc12	2.2	0.72	-0.2	4.2	-7	-3%	6.8
O=C(NCCCn1ccnc1)Nc1cccc2ccccc12	-0.8	0.72	0.6	-0.2	-3	22%	-0.6
CCC(=O)N1CCN(c2ccccc2NC(=S)NC(=O)c2cccc([N+](=O)[O-])c2)CC1	2.2	0.67	-0.4	3.0	5	7%	-0.1
CCNS(=O)(=O)c1ccc(NC(=O)Cn2nc(C(F)(F)F)cc2C)cc1	1.0	0.69	0.8	1.1	-1	-4%	2.3
O=C(O)c1ccc(-c2ccccn2)s1	2.5	0.69	-5.2	0.3	-7	-15%	2.0
COc1ccc2cc(C(=O)/C=C/c3cc(OC)c(O)c(OC)c3)ccc2c1	-0.6	0.71	-0.7	-21	-32	·	-4.9
COc1ccc(Cl)cc1NC(=O)c1nnn(CC(=O)Nc2ccc(OC)c(OC)c2)c1N	0.5	0.72	0.3	3.0	21	·	1.0
Cc1cc(NC(=O)CN2CCCCC2C)no1 (stereo not drawn)	-2.3	0.72	-0.3	0.1	1	7%	0.1
Cc1ccc(C)c2c(SC(C)C(=O)NCc3ccco3)nc(-c3ccccc3)nc12 (stereo not drawn)	-0.6	0.68	0.3	2.7	-3	0%	-1.5
O=C(CCNS(=O)(=O)c1ccc(Cl)cc1)N1CCN(c2ncccn2)CC1	-4.9	0.68	·	2.6	-7	-8%	·
CN(C)S(=O)(=O)c1cccc(NC(=O)c2cnccn2)c1	·	0.69	-0.3	-0.2	·	9%	-3.2
Cc1cccc2cc(CN(Cc3cccs3)C3(c4nnnn4C4CCCC4)CCCC3)c(=O)[nH]c12	2.0	0.85	-0.4	-1.7	24	1%&-7%	-4.7
Cc1cccc(C(=O)NCCCNC(=O)c2ccccn2)c1	-4.7	0.65	-0.4	1.1	1	·	0.6
CC(C)C(c1nnnn1CC1CCCO1)N1CCN(C2CCCC2)CC1 (stereo not drawn)	-0.3	0.69	-0.1	1.6	1	10%	2.0
CC1=CC(=O)C(C(C)C)=C/C1=N/OC(=O)c1cccc([N+](=O)[O-])c1	2.3	·	0.4	·	1	0%	0.3
O=C1CCC/C1=C\c1ccccc1	-1.5	0.68	1.4	6.6	-3	7%	0.4
O=C1C2C3c4ccccc4C(c4ccccc43)[C@@H]2C(=O)N1c1ccccn1 (stereo partly drawn)	-1.9	0.66	-0.1	4.0	-1	·	-1.0
O=C(O)c1ccc(N2CCCCC2)cc1	4.5	0.71	-0.2	1.7	-4	8%	6.5
COC(=O)C1=NN(C(C)=O)C2(CC(=O)N(c3cc(C)cc(C)c3)C2=O)C1 (stereo not drawn)	-1.2	0.7	1.6	-27	-4	·	0.0
N#C/C(=C(/O)COC(=O)CCCNC(=O)c1ccc(Cl)cc1)c1nc2ccccc2[nH]1	4.7	·	0.2	·	13	-3%	9.0
Cc1c(C(=O)N2CCOCC2)c(S(=O)(=O)Nc2cccc(C#N)c2)c(C)n1C	5.0	0.69	1.2	0.5	-18	·	0.5
CCc1ccc(N2C(=O)CC(N(CC3CCCO3)C(=O)/C=C/C(=O)O)C2=O)cc1 (stereo not drawn)	-13	0.71	0.8	3.5	0	4%	4.7
O=C(NCCc1ccccc1)c1ccc([N+](=O)[O-])cc1	7.3	0.67	-4.8	2.5	-5	-7%	1.2
CCCCn1c(N)c(N(CC(C)C)C(=O)CSCc2c(C)noc2C)c(=O)[nH]c1=O	2.1	0.67	0.4	1.2	5	-2%	·
Cc1n[nH]c(C)c1N1C(=O)c2cccc3cc(Br)cc(c23)C1=O	3.5	0.66	0.7	2.1	-37	17%	-4.1
Cc1cc(CC(=O)O)n(C)c1C(=O)c1ccc(Cl)cc1	-0.6	·	0.5	·	-6	·	-1.9
COc1ccc(C(=O)NNC(=O)CSc2nnc(COc3ccccc3OC)n2C)cc1	4.2	0.67	-0.4	2.5	6	11%	2.5
COc1ccc(C(=O)C2CCCN(Cc3cnc(N4CCOCC4)s3)C2)cc1F (stereo not drawn)	0.4	0.74	0.0	3.8	-10	-5%	-0.1
Cc1ccc(C)c(-c2ccc(=O)n(Cc3ccc(F)cc3Cl)n2)c1	7.0	0.65	-0.6	2.6	-19	·	1.2
CC(=O)c1ccc(NC(=O)CSc2nnc(-c3ccco3)o2)cc1	-1.6	0.64	-0.9	-0.6	0	·	1.1
COc1ccc(CCNC(=O)COC(=O)c2cc(Cl)nc(Cl)c2)cc1	2.5	0.67	0.2	0.6	6	·	-4.1
C=CC[C@@H](CC(=O)N(CCO)Cc1ccccc1)C(=O)N[C@H](COC(=O)[C@@H](CC=C)CC(=O)OC(C)(C)C)c1ccccc1	0.6	·	0.9	9.9	6	·	0.3
CC(=O)c1c(C)[nH]c(C(=O)NCCc2ccccc2)c1C	1.8	0.75	-1.3	-2.6	5	-2%	-2.5
CCOC(=O)c1cc2c(=O)n3ccccc3nc2n(CCOC)c1=NC(=O)c1c(-c2c(F)cccc2Cl)noc1C	-2.4	0.7	-1.1	-198	26	·	3.9
CSc1cccc(NC(=O)C2CCN(S(C)(=O)=O)CC2)c1	0.4	0.66	0.8	3.2	8	15%	3.0
CCOC(=O)c1cc(-c2cccc([N+](=O)[O-])c2)on1	0.7	·	-0.3	·	10	-6%	4.2
Cc1cccc(/C=N\NC(=O)c2sccc2-n2cccc2)c1	-0.3	·	0.3	·	7	3%	11
CC(NC(=O)CSc1ncn[nH]1)c1ccc(Cl)cc1Cl (stereo not drawn)	0.1	0.64	·	3.5	-1	·	·
CSCCC(NC(=O)c1ccc([N+](=O)[O-])cc1Cl)C(=O)OC(C)C(=O)NCc1ccco1 (stereo not drawn)	-3.4	0.66	0.3	4.5	16	12%	-0.7
Cc1ccc(S(=O)(=O)/N=C2/NC(=O)/C(=C\c3cc(Br)cc(Br)c3O)S2)cc1	80*	0.65	3.2	20	10	·	-6.8
CC(=O)Nc1cc(C(=O)O)ccc1S(=O)(=O)c1ccc(C)cc1	-0.9	0.67	0.7	-4.2	3	2%	0.3
COC(=O)Nc1nnc(COc2cccc(C)c2)s1	-0.6	0.67	0.0	1.4	5	?	6.0
Cc1cc(C)c(NC(=O)CS(=O)CC(=O)N2CCN(c3ccccc3)CC2)c(C)c1 (stereo not drawn)	-2.3	0.73	0.2	0.1	-7	16%	3.0
O=C(COC(=O)c1ccccc1[N+](=O)[O-])Nc1nnc(-c2ccccc2)o1	1.4	0.66	-0.5	2.4	3	-2%	3.9
COc1cccc2c1OC[C@@H](CO)[C@H]2N(C)C(=O)Nc1ccccc1	0.4	0.73	·	-2.0	-1	2%	·
COc1cc(Cl)ccc1OCc1cc(C(=O)N2C[C@H]3CC[C@H]2C3)no1	1.7	0.72	0.6	4.4	3	·	7.2
CC1CN(S(=O)(=O)c2ccccc2)C(C)N1C(=O)N1CCOCC1 (stereo not drawn)	4.5	0.64	-0.6	3.8	17	·	-0.7
Cc1ccccc1CC(=O)NCC1CCCCC1	2.5	0.7	-0.2	3.3	-10	·	-0.4
O=C(NCCC(=O)N1CCN(c2cccc(Cl)c2)CC1)c1ccc(Br)cc1	-0.1	0.66	2.4	1.8	4	-9%	-1.1
COc1ccc(C(=O)NC2CC2)cc1OC1CCN(Cc2cnn(C)c2C)CC1	0.8	0.75	1.2	1.3	-9	·	-2.4
COC(=O)c1c(NC(=O)C2Cc3ccccc3C(=O)O2)sc2c1CCCC2 (stereo not drawn)	4.8	0.67	0.3	1.0	-4	16%	-6.5
Cc1ccc(C)c(NC(=O)COc2coc(CN3CCc4ccccc43)cc2=O)c1	3.0	0.75	0.9	0.4	-2	3%	·
O=C1CCC(C(=O)N2CCCC2)CN1CCc1cccc(F)c1 (stereo not drawn)	2.5	0.7	-0.1	1.6	30	·	-4.5
Cn1c(=O)cc(Nc2ccccc2)c2c(=O)n(-c3ccccc3)c(=O)n(-c3ccccc3)c21	3.7	0.65	0.7	2.8	-6	·	-4.4
CNC(=O)/C(C#N)=C/c1ccc(-c2ccccc2[N+](=O)[O-])o1	-2.4	0.66	0.2	7.8	-18	0%	0.4
CCCn1c(SCC(=O)NC(C)c2ccccc2)n[nH]c1=O (stereo not drawn)	0.0	0.69	0.3	0.1	-8	?	2.6
CC(C)c1nnc(NC(=O)C2c3ccccc3Oc3ccccc32)s1	-0.4	0.72	-0.4	4.3	-8	?	1.8
Next part:
SMILES	HNF4A DNA FP	E coli growth	A1 inh	UCH37 inh	Beta2AR agonist	Vif TR-FRET	LANA-H2A inh
O=C(Nc1ccccc1)c1c(F)c(F)c(F)c(F)c1F	2.5	0.66	-0.2	-1.4	5	2%	-2.1
C/C(=N\NC(=O)COc1cc(C)cc(C)c1)c1ccc(N2CCOCC2)cc1	3.4	·	-1.3	·	5	18%	1.2
CCn1ncc(Br)c1C(=O)Nc1c(C)nn(Cc2c(F)c(F)c(F)c(F)c2F)c1C	2.8	0.7	1.9	3.4	1	·	6.0
Cc1ccc(S(=O)(=O)N2CCOCC2)c(C)c1-n1cnnn1	-0.4	0.65	0.9	1.4	2	-3%	1.6
CC(=O)Nc1cccc(NC(=O)c2cccc(OCc3ccccc3)c2)c1	6.6	0.64	0.3	2.1	6	-7%	-4.3
Cc1cccc(-n2ncc3c2CCCC3NC(=O)CCCN2CCCCC2=O)c1C (stereo not drawn)	1.6	0.67	0.1	0.0	7	-7%	2.3
O=C(N/N=C1\CCSC1)c1cc(Cl)ccc1O	-2.0	·	-1.4	·	10	22%	-0.5

Some entries already given, limited to E coli growth, HNF4A DNA FP and Vif TR-FRET:
Compound	E coli growth	HNF4A DNA FP	Vif TR-FRET
C/C(=N\NC(=O)COc1cc(C)cc(C)c1)c1ccc(N2CCOCC2)cc1	·	3.4	18%
CCn1ncc(Br)c1C(=O)Nc1c(C)nn(Cc2c(F)c(F)c(F)c(F)c2F)c1C	0.7	2.8	·
Cc1ccc(S(=O)(=O)N2CCOCC2)c(C)c1-n1cnnn1	0.65	-0.4	-3%
CC(=O)Nc1cccc(NC(=O)c2cccc(OCc3ccccc3)c2)c1	0.64	6.6	-7%
Cc1cccc(-n2ncc3c2CCCC3NC(=O)CCCN2CCCCC2=O)c1C (stereo not drawn)	0.67	1.6	-7%
